Compound activity: PubChem, Broad Institute
BJeLR viab HTS: BJeLR cell viability loss, primary screen, luminescence, CellTiterGlo ATP; BJeLR fibroblasts viability, 48 h; HRASV12, hTERT and SV40 LT/ST transformed; viability loss activity score, % (no concentration beside the values); actives 0.64% (n = 30,000); in the data active = viability loss activity score above about 50%; about a fifth of its hits are not listed in these tables;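 note: higher score means fewer live cells and less ATP luminescence; stock transfer was 50 or 100 nL into about 30 µL; 0% = vehicle wells and 100% = a reference killing control; one replicate is shown; the record names a cut of 85%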
A1 inhib: inducers of caspase activity in MEF A1-2A-BIM cells, primary screen, A1 inhibitor project, cell-based, CaspaseGlo luminescence | caspase-Glo luminescence, 3 h; percent of clofoctol signal, DMSO as zero | caspase activation, % (test concentration not listed) | actives 0.51% (n = 21,000) | AID 2241, 2010;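 active = most replicate scores above 10, or exactly half above 10 with mean activity above 10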;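 note: effector caspase 3 and 7 activity cleaving a DEVD luciferin substrate; 50 nL library stock added to about 30 µL; numbers are from one replicate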
Numbers without * were called inactive; . = no result given. An excerpt. The share of hits here may be higher or lower than overall.

SMILES	BJeLR viab HTS	A1 inhib
C=CC1CCC(O)C(N(C)C(=S)Nc2ccccc2)C1 (stereo not given)	5.8	0.9
Cc1cc(-c2nnc(-c3cccc(C(F)(F)F)c3)o2)no1	2.4	-0.9
C(=N/n1cnnc1)/c1cccc2c1OCCCO2	-4.7	-0.4
CC(C)Nc1nc(-c2cccs2)cc(C(F)(F)F)c1C#N	-0.2	-1.1
Cc1noc(C)c1S(=O)(=O)Nc1ccc2c(c1)C(=O)N([C@@H](C)CO)C[C@H](C)[C@@H](CN(C)S(C)(=O)=O)O2	-0.5	0.0
C[C@@H]1CN([C@@H](C)CO)C(=O)c2cc(NC(=O)Cn3cnnn3)ccc2O[C@@H]1CN(C)CC1CCCCC1	5.4	-0.2
Cc1sc2nc(SCCC(C)C)nc(N)c2c1C	-0.8	-0.4
Cc1noc(C)c1S(=O)(=O)N(C)C[C@@H]1Oc2ccc(NS(=O)(=O)c3ccccc3)cc2C(=O)N([C@@H](C)CO)C[C@@H]1C	-3.1	.
O=C(Nc1ccc(Cl)cc1)c1ccc(CSc2ncccn2)cc1	6.6	0.2
CC1CCC2(C)C(CC(O)C(O)C2(O)CO)C1(C)CCc1ccoc1 (stereo not given)	-4.6	0.2
C[C@@H]1CN([C@@H](C)CO)C(=O)c2cccc(NS(=O)(=O)c3ccc(Cl)cc3)c2O[C@H]1CN(C)S(=O)(=O)c1cn(C)cn1	-0.6	.
COC(=O)CC1C(=O)NCCN1C(=O)OC(C)(C)C (stereo not given)	-5.9	0.1

In the list so far, these have fluorine.
SMILES	BJeLR viab HTS	A1 inhib
Cc1cc(-c2nnc(-c3cccc(C(F)(F)F)c3)o2)no1	2.4	-0.9
CC(C)Nc1nc(-c2cccs2)cc(C(F)(F)F)c1C#N	-0.2	-1.1

(continued)
SMILES	BJeLR viab HTS	A1 inhib
CS/C(NCC1CC1)=C(/C#N)C(=O)c1ccc(Cl)cc1	-4.6	-0.4
C[C@@H]1CN([C@@H](C)CO)C(=O)c2cc(NC(=O)CCCN(C)C)ccc2O[C@H]1CN(C)Cc1ccc(Cl)c(Cl)c1	-0.4	-0.7
CCOC(=S)Nc1cccc2ccccc12	-1.7	-0.5
Cc1noc(C)c1NC(=O)Nc1ccc2c(c1)C(=O)N([C@@H](C)CO)C[C@@H](C)[C@@H](CN(C)Cc1ccccc1)O2	11	0.0
COC(=O)CSc1nnc(CNC(=O)Cc2ccccc2)n1C	-5.5	.
CC(C)NC(=O)N(C)C[C@@H]1Oc2ccc(NC(=O)C3CC3)cc2C(=O)N([C@H](C)CO)C[C@H]1C	-2.3	0.1
CN(CC(O)Cn1c2ccccc2c2ccccc21)S(=O)(=O)c1ccc(Cl)cc1 (stereo not given)	-3.0	.
Cc1noc(C)c1NC(=O)Nc1ccc2c(c1)C(=O)N([C@@H](C)CO)C[C@H](C)[C@H](CN(C)Cc1ccc(-c3ccccc3)cc1)O2	-7.0	-0.1
CN1C(=O)C(C)(C)c2cc(S(=O)(=O)N3CCCC3)ccc21	-2.2	1.1
CC(C)(C)n1ncc2c(=O)n(CC(=O)c3ccccc3)cnc21	-2.4	0.8
O=c1c2ccccc2[nH]c(=S)n1CC1COc2ccccc2O1 (stereo not given)	-7.7	0.3
Cc1ccc(S(=O)(=O)Nc2ccc3c(c2)C(=O)N([C@H](C)CO)C[C@@H](C)[C@@H](CN(C)Cc2ccc(C(=O)O)cc2)O3)cc1	4.5	-0.2
CC(C)NC(=O)Nc1cccc2c1O[C@H](CN(C)CC1CC1)[C@@H](C)CN([C@H](C)CO)C2=O	-3.2	.
C[C@H]1CN([C@@H](C)CO)C(=O)c2cc(NS(=O)(=O)c3ccc(F)cc3)ccc2O[C@@H]1CN(C)S(=O)(=O)c1ccc(Cl)cc1	-2.3	1.4
C[C@@H]1CN([C@@H](C)CO)C(=O)c2cccc(NC(=O)c3cnccn3)c2O[C@H]1CN(C)Cc1ccc(C(=O)O)cc1	-0.3	.
COc1ccc(S(=O)(=O)Nc2cccc3c2O[C@@H](CN(C)S(=O)(=O)c2ccc(C)cc2)[C@@H](C)CN([C@@H](C)CO)C3=O)cc1	-2.9	.
O=C1NC(=O)c2cc(-c3ccccc3)ccc21	1.5	-0.6
Cc1noc(C)c1NC(=O)Nc1ccc2c(c1)C(=O)N([C@@H](C)CO)C[C@@H](C)[C@H](CN(C)S(=O)(=O)c1cccs1)O2	-0.3	-0.2
CN(Cc1ccccc1)C(=O)CSc1nc2ccc(Br)cc2c2nc3ccccc3n12	0.5	0.1
C[C@H]1CN([C@@H](C)CO)C(=O)c2cccc(NC(=O)Nc3ccccc3)c2O[C@H]1CN(C)C(=O)NC1CCCCC1	3.0	.
Cc1cc(C)cc(-n2c(C)cc(/C=C3\SC(=O)NC3=O)c2C)c1	-1.2	-0.5
C[C@@H]1CN([C@@H](C)CO)C(=O)c2cc(NC(=O)Cc3cn(C)c4ccccc34)ccc2O[C@@H]1CN(C)Cc1ccc(C(=O)O)cc1	-2.4	0.2
COc1ccc(NS(=O)(=O)c2ccc3c(c2)OCC(=O)N3)cc1	3.9	-0.2
CC1(C)CC(=O)c2cc(OCC(=O)NC3CCCC3)ccc2O1	3.1	0.1
Cc1noc(C)c1S(=O)(=O)Nc1ccc2c(c1)C(=O)N([C@H](C)CO)C[C@H](C)[C@@H](CN(C)C(=O)Nc1ccc(F)cc1)O2	-1.0	0.0
C[C@H]1CN([C@@H](C)CO)C(=O)c2cc(NS(=O)(=O)c3cccs3)ccc2O[C@H]1CN(C)Cc1ccc(C(F)(F)F)cc1	-1.7	1.0
Cc1ccc(C2=NN=C(NC(=O)CSc3ccccc3)SC2)cc1	-4.0	-0.1
COC(=O)c1onc(C(=O)c2ccccc2)c1C(=O)OC	1.9	0.3
C[C@H]1CN([C@@H](C)CO)C(=O)c2cc(NS(=O)(=O)c3ccc(Cl)cc3)ccc2O[C@H]1CN(C)S(=O)(=O)c1ccc(F)cc1	-6.7	0.5
C[C@@H]1CN([C@H](C)CO)C(=O)c2cc(NS(=O)(=O)c3cccs3)ccc2O[C@H]1CN(C)Cc1ccc(Cl)c(Cl)c1	-0.3	0.1
CCOC(=O)c1cnc2c(cnn2CC)c1NN=C(C)C	-4.8	-0.1
Cc1ccccc1OC1C(=O)N(CCc2ccc(F)cc2)C1c1ccc2c(c1)OCO2 (stereo not given)	0.3	.
Cc1noc(C)c1NC(=O)Nc1cccc2c1O[C@@H](CN(C)C(=O)Nc1c(C)noc1C)[C@@H](C)CN([C@H](C)CO)C2=O	3.5	.
C[C@@H]1CN([C@H](C)CO)C(=O)c2cccc(NC(=O)Nc3ccccc3)c2O[C@@H]1CN(C)Cc1ccncc1	-6.3	.
O=C(Nc1ccccc1C(F)(F)F)c1cnc2ccccn2c1=O	-3.1	.
CC(C)NC(=O)Nc1cccc2c1O[C@@H](CN(C)CC1CC1)[C@H](C)CN([C@H](C)CO)C2=O	1.0	.
CC(Sc1nc(-c2ccccc2)cc(C(F)(F)F)n1)C(=O)N1CCCCC1 (stereo not given)	-0.4	-0.5
COc1ccc(-c2cc(SCCN3CCOCC3)c(C#N)c(-c3ccccc3)n2)cc1	1.5	-0.4
COc1ccc(NC(=O)N(C)C[C@H]2Oc3ccc(NS(=O)(=O)c4cn(C)cn4)cc3C(=O)N([C@H](C)CO)C[C@@H]2C)cc1	-1.9	0.3
Fc1ccccc1N1CCN(CCCNc2nc(=S)[nH]c3ccccc23)CC1	29	-1.3
C/C(=C\c1ccc(C(=O)O)cc1)c1ccc2c(c1)C(C)(C)CCC2(C)C	0.8	0.4
Cc1cc(C(=O)Nc2cccc3c2O[C@@H](CN(C)S(C)(=O)=O)[C@H](C)CN([C@H](C)CO)C3=O)n(C)n1	0.6	.
O=C1CSC(C23CC4CC(CC(C4)C2)C3)N1 (stereo not given)	-2.2	.
O=C(O)/C=C/c1ccccc1O[C@@H]1O[C@H](CO)[C@@H](O)[C@H](O)[C@H]1O	-6.3	0.2
O=C(Nc1ccccc1)Nc1ccc(-n2ccc(C(F)(F)F)n2)cc1	-4.7	-4.9
COc1ccc(S(=O)(=O)Nc2ccc3c(c2)C(=O)N([C@H](C)CO)C[C@H](C)[C@H](CN(C)S(=O)(=O)c2c(C)noc2C)O3)cc1	-0.2	-0.7
C[C@H](CO)N1C[C@H](C)[C@H](CN(C)S(=O)(=O)c2cn(C)cn2)Oc2ccc(NC(=O)c3ccncc3)cc2C1=O	6.5	0.1
Cc1ccc(S(=O)(=O)N(C)C[C@@H]2Oc3ccc(NC(=O)c4ccncc4)cc3C(=O)N([C@H](C)CO)C[C@@H]2C)cc1	-0.4	0.8

A second format for 5 compounds above:
Structure,BJeLR viab HTS,A1 inhib
O=C1CSC(C23CC4CC(CC(C4)C2)C3)N1 (stereo not given),-2.2,.
O=C(O)/C=C/c1ccccc1O[C@@H]1O[C@H](CO)[C@@H](O)[C@H](O)[C@H]1O,-6.3,0.2
O=C(Nc1ccccc1)Nc1ccc(-n2ccc(C(F)(F)F)n2)cc1,-4.7,-4.9
COc1ccc(S(=O)(=O)Nc2ccc3c(c2)C(=O)N([C@H](C)CO)C[C@H](C)[C@H](CN(C)S(=O)(=O)c2c(C)noc2C)O3)cc1,-0.2,-0.7
C[C@H](CO)N1C[C@H](C)[C@H](CN(C)S(=O)(=O)c2cn(C)cn2)Oc2ccc(NC(=O)c3ccncc3)cc2C1=O,6.5,0.1

Next records.
SMILES	BJeLR viab HTS	A1 inhib
CC(C)=C1C[C@@]2(CO)C(=CC1=O)CC[C@@H](O)[C@@H]2C	-6.1	0.3
CCOC(=O)Cc1csc(-c2ncc(C(F)(F)F)cc2Cl)n1	3.8	-0.6
CCSC1=C(C#N)C(c2ccc(Cl)cc2)C(C(=O)OC(C)(C)C)=C(C)N1 (stereo not given)	-5.5	0.2
c1ccc(CSc2nnc3n(CCOc4ccccc4)c4ccccc4n23)cc1	-5.4	.
O=c1cc(C23CC4CC(CC(C4)C2)C3)[nH][nH]1	0.9	1.3
COc1ccc(C(=O)CSc2nc3ccccc3c(=O)n2-c2ccc(C)cc2)cc1	3.3	.
COC(=O)c1cc(-c2cccnc2)nc2ccccc12	2.2	2.0
CCCc1nnc(/N=C/c2cc(-c3ccccc3)oc2O)s1	0.0	.
Cc1ccc(CCNC(=O)NC(C)(C)C)cc1	1.1	0.2
c1ccc(Cn2ncc3c(Nc4ccc5ccccc5c4)ncnc32)cc1	1.8	-1.1
C[C@@H]1CN([C@@H](C)CO)C(=O)c2cccc(NS(=O)(=O)c3cn(C)cn3)c2O[C@H]1CN(C)C(=O)Nc1ccc(C(F)(F)F)cc1	9.1	.
CC(C)NC(=O)N(C)C[C@@H]1Oc2ccc(NC(=O)Cc3ccccc3)cc2C(=O)N([C@H](C)CO)C[C@@H]1C	3.1	-0.1
CCOC(=O)c1cnn(-c2nc(C)cc(C)n2)c1N	2.7	-0.8
C[C@H](CO)N1C[C@H](C)[C@@H](CN(C)CC2CC2)Oc2c(NC(=O)Nc3ccccc3)cccc2C1=O	0.3	.
O=C(CSc1nccn1-c1ccccc1)Nc1ccccc1F	-7.1	.
COC(=O)C1=C(NC(=O)c2ccccc2C)CCS1	4.7	0.8
C[C@H](CO)N1C[C@H](C)[C@H](CN(C)C(=O)NC2CCCCC2)Oc2c(NS(C)(=O)=O)cccc2C1=O	-1.0	.
COc1ccc(NS(=O)(=O)c2ccc(N)cc2)nn1	4.7	0.7
COc1ccc(NC(=O)Nc2cccc3c2O[C@@H](CN(C)Cc2ccc(-c4ccccc4)cc2)[C@@H](C)CN([C@@H](C)CO)C3=O)cc1	-5.0	.
CCC(Cc1ccccc1)NC(=O)c1ccc2c(c1)NC(=O)c1ccccc1S2 (stereo not given)	3.4	-1.2
Cc1ccc(S(=O)(=O)Nc2cccc3c2O[C@H](CN(C)Cc2ccc(C(=O)O)cc2)[C@@H](C)CN([C@@H](C)CO)C3=O)cc1	3.9	.
CCOC(=O)c1c(S(=O)(=O)Nc2ccc(Cl)cc2)c(C)n(-c2ccccc2)c1C	4.6	-1.5
COc1ccc(S(=O)(=O)Nc2cccc3c2O[C@@H](CN(C)S(=O)(=O)c2cccs2)[C@@H](C)CN([C@H](C)CO)C3=O)cc1	-3.4	.
C[C@H]1CN([C@@H](C)CO)C(=O)c2cc(NC(=O)NC3CCCCC3)ccc2O[C@H]1CN(C)Cc1ccc(C(=O)Nc2ccccc2N)cc1	8.0	.
C[C@@H]1CN([C@@H](C)CO)C(=O)c2cccc(NC(=O)C3CC3)c2O[C@H]1CN(C)Cc1ccc(C(F)(F)F)cc1	0.9	.
Cc1ccc(N=C2SCC(=O)N2C)cc1	-1.8	0.7
Cc1ccc2oc(=O)c3cc(C(=O)NCc4cccs4)sc3c2c1	4.2	.
C[C@H](CO)N1C[C@H](C)[C@@H](CN(C)Cc2ccc(-c3ccccc3)cc2)Oc2c(NC(=O)C3CCCCC3)cccc2C1=O	1.2	.
Cc1ccc(C(=O)NC(NCc2ccco2)(C(F)(F)F)C(F)(F)F)cc1	3.9	-0.3
CC1=C(C(=O)OC2CCCN(C)C2)C2(O)C(=O)c3ccccc3C2(O)N1 (stereo not given)	1.5	0.5
O=C(O)CCNc1nc(-c2ccccc2)c2cc(Br)ccc2n1	2.1	0.3
O=C(CN1CCCc2ccccc21)Nc1ccc(Cl)c(Cl)c1	0.9	0.0
CCOC(=O)C(C)(C)Sc1nc2c(cnn2-c2ccc(Cl)cc2)c(=O)[nH]1	6.9	.
CC(=O)O[C@@]1(C)[C@@H]2CC(=C(C)C)C(=O)C[C@@]2(C)CC[C@H]1OC(=O)C1(C)OC1C (stereo not given in full)	54*	0.1
Cc1ccc(CNC(=O)C2C3C=CC4(CN(Cc5cccs5)C(=O)C24)O3)cc1 (stereo not given)	-0.7	.
